Screening data from PubChem BioAssay.
Rango release inh: inhibitors of RanGTP-induced Rango-importin beta complex dissociation | O95149+P62826 | Biochemical FRET Rango-importin beta, RanGTP-induced dissociation | Potency, µM (doses to about 46.1 µM), without a hit: at the top dose activity change, negative = inhibition | hit rate 0.071% among 340,000; active means falling FRET ratio curve, often poorly fitted, with flat reads before Ran was added; inconclusive means other falling curves, or compound fluorescence or quenching; inactive means flat or rising ratio curve;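 note: potency is the fitted concentration of half-maximal effect; % of control where 0% means no effect; nearly all actives have a fitted effect of over 45% in size; -100% = wells without RanGTP and RCC1; the record marks most hits as doubtful in a second field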
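Rango/importin beta premix (0.1/0.25 uM final), PBS + 1 mM DTT + 0.02% Tween-20 + 0.1% BSA; cpd 5 min RT; FRET pre-read; + RanGTP-RCC1 (0.6 uM Ran, 2 mM GTP, 0.2 uM RCC1); 45 min RT; FRET post-read, ex 430, em 486/530 nm.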
Rango-impB inh: prevents formation of the Rango-importin beta complex; Rango CFP/YFP FRET sensor + importin beta, 45 min; Potency, µM (highest dose often 92.2 µM), without a hit: at the top dose inhibition of complex formation; hit rate 0.031% among 340,000; Q14974; active = rising FRET ratio curve, often small or poorly fitted; inconclusive = mostly compound fluorescence or quenching in the first reads; inactive = flat curves in all reads;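 note: potency is the fitted concentration of half-maximal effect; 0% = DMSO wells and 100% = buffer wells lacking importin beta; nearly all actives have a fitted effect of over 15% in size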
Target sequence (Q14974 whole entry, looked up): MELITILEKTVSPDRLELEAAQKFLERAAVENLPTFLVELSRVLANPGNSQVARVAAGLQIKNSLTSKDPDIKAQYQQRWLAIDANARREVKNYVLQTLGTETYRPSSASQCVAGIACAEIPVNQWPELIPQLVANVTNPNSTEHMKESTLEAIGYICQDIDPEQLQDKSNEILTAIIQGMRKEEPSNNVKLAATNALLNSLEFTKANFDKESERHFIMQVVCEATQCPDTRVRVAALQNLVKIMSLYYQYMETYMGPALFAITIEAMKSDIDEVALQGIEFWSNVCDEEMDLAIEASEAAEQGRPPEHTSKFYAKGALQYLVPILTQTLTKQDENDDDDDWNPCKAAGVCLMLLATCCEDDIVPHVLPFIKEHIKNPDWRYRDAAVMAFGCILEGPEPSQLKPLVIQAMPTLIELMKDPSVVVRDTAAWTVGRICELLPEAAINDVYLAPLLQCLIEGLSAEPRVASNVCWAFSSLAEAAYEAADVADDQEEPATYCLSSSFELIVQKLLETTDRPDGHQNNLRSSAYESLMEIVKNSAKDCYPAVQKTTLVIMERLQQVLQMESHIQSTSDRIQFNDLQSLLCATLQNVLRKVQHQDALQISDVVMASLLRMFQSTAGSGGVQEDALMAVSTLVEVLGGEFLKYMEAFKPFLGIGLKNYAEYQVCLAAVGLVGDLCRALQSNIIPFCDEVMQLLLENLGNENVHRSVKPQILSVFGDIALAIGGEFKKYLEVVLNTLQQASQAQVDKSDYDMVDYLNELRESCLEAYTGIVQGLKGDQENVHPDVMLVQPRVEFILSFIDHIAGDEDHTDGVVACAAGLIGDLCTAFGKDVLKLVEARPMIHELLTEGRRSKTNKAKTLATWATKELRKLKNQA
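FRET biosensor (snurportin 1 IBB flanked by EYFP and cerulean), 50 nM, with compound 5 min, then 0.125 microM importin beta in PBS, 1 mM DTT, 0.02% Tween-20, 0.1% BSA. CFP/YFP ratio read after 45 min at room temperature; pre-read flags interference.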
GLA inh pH 4.5: blocks human alpha-galactosidase A at pH 4.5; P06280; purified enzyme, 4-MU-alpha-Gal fluorescence, pH 4.5; activity change, negative = inhibition, % at 105 µM; 230,000 tested, under 10 active; inconclusive = small, poorly fitted or top-dose-only inhibition, or a rising curve; inactive = flat fitted curve, though single readings scatter; no compound was filed as active;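 note: 0% = full activity with enzyme and -100% = basal without enzyme; dose as in the result columns while the protocol names 77 µM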
miR-21 FLuc: raises the signal of a miR-21 reporter; HeLa miR-21 FLuc reporter, luciferase, 48 h; Potency, µM (highest dose often 38.3 µM), for inactives: at the highest dose reporter change, positive = more light; 340,000 tested, under 10 active; AID 2288; active = well fitted rising curve with a large enough effect; inconclusive = small, poorly fitted or top-dose-only effect; inactive = no such curve, though single readings can be large or run the other way;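 note: % of control where 0% means no effect; miR-21 action dims this reporter so a rising signal means less miR-21 action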
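Using DMEM plus 10% FBS, HeLa miR-21-FLuc cells are incubated with test compounds (final up to about 40uM) for 48 hours; firefly luciferase signal is then imaged following reagent-mediated lysis.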
Numbers without * were called inactive; ? = inconclusive; . = no result given; & = joins results of further samples; [ ] = another dose, or the depositor's remark.

SMILES	Rango release inh	Rango-impB inh	GLA inh pH 4.5	miR-21 FLuc
O=C(COC(=O)C1CCN(c2ccc(C(F)(F)F)cn2)CC1)Nc1cccc(F)c1	6%	4.2%	.	.
O=C(CN1CCN(S(=O)(=O)c2ccc(F)cc2)CC1)Nc1ccc(F)cc1F	-1%	0.4%	.	-22%
O=C(NCCCO)C(=O)c1c(-c2ccccc2)cc2ccccn12	-9%	-0.8%	7	-1%
CCOC(=O)C1CCN(c2ccc(C(=O)O)cc2[N+](=O)[O-])CC1	-4%	-3.0%	6	-6%
O=c1cc(CN2CCN(c3cccc(Cl)c3)CC2)c2cc3c(cc2o1)CCCC3	-8%	5.2%	1	-1%
O=C(CSc1n[nH]c(=O)[nH]c1=O)Nc1ccc(Br)cc1Br	0%	1.8%	.	.
CC(C)c1nc2c([nH]1)c(=O)n(C)c(=O)n2C	-5%	-0.8%	-14	8%
C1=CCC(CN2CCNCC2)CC1 (centres undefined)	0%	-1.5%	6	-2%
O=C(Cc1cccs1)N/N=C/c1ccco1	9%	1.9%	0	-7%
CCC(=O)c1ccc(N2CCC(C)CC2)c(F)c1	18%	-0.2%	6	-18%
O=C(CSc1nnc(C2CC2)n1C1CC1)c1cc(F)ccc1F	-10%	2.6%	.	.
Cc1ccc(-n2c(SCC(=O)NCCN3C(=O)CSC3=O)nnc2-c2ccccc2F)cc1	0%	2.9%	1	-5%
COC(=O)c1cc2oc3ccccc3c2n1CC(=O)N1CCCc2ccccc21	-8%	-1.5%	0	0%
CCc1cc(C(=O)COc2ccc(F)cc2)c(O)cc1O	14%	1.6%	2	-51%
COc1cccc(-c2cccc(NC(=O)C3CCN(Cc4ccc(CO)o4)CC3)c2)c1	-3%	-4.5%	.	-13%

Profiles, looked up by structure. Order of screens: Rango release inh | Rango-impB inh | GLA inh pH 4.5 | miR-21 FLuc
Entry for O=C(NCCCO)C(=O)c1c(-c2ccccc2)cc2ccccn12 = -9% | -0.8% | 7 | -1%
Entry for COC(=O)c1cc2oc3ccccc3c2n1CC(=O)N1CCCc2ccccc21 = -8% | -1.5% | 0 | 0%

4 compounds drawn at random from those above:
SMILES	Rango release inh	Rango-impB inh	GLA inh pH 4.5	miR-21 FLuc
CCc1cc(C(=O)COc2ccc(F)cc2)c(O)cc1O	14%	1.6%	2	-51%
CC(C)c1nc2c([nH]1)c(=O)n(C)c(=O)n2C	-5%	-0.8%	-14	8%
O=C(CSc1nnc(C2CC2)n1C1CC1)c1cc(F)ccc1F	-10%	2.6%	.	.
COC(=O)c1cc2oc3ccccc3c2n1CC(=O)N1CCCc2ccccc21	-8%	-1.5%	0	0%

Later entries.
SMILES	Rango release inh	Rango-impB inh	GLA inh pH 4.5	miR-21 FLuc
Cc1cc(=O)oc2cc(OC(C)C(=O)NCc3ccccn3)ccc12 (centres undefined)	13%	-0.8%	.	-7%
CSCC[C@H](N)C(=O)N1CCC(C(=O)N[C@@H](C)C(=O)NCc2ccc(F)cc2)CC1	3%	-1.9%	.	0%
Cc1ccc(NC(=O)CN(C)C(=O)c2cccc(Br)c2)cc1	17%	6.3%	.	-7%
COc1cc(OC)c2c(-c3ccccc3)cc(=O)oc2c1C(CC(=O)N1CCN(c2ccccc2)CC1)c1ccc(N(C)C)cc1 (centres undefined)	2%	-1.1%	-5	-1%
Cc1ccccc1C(=O)c1ccccc1C(=O)c1ccccc1	-5%	4.1%	.	.
O=C(Cn1cnc2sc(-c3ccccc3)cc2c1=O)NCCc1ccccc1	-7%	2.0%	-4	-4%
CC(C)C(=O)c1cc2c(cc1NC(=O)Nc1cccc3ccccc13)OCCO2	.	.	-9	4%
CCn1c(=S)sc2c(=O)n(CC(=O)Nc3ccc(OC)cc3)c(C)nc21	-5%	0.0%	.	8%
O=C(Nc1ccccc1)N1CCc2scc[n+]2-c2ccccc21	-4%	-2.9%	2	?
CCOc1ccc(NC(=O)CCCn2c(=S)[nH]c3ccsc3c2=O)cc1	-13%	-0.7%	4[21.1 µM]	-1%
CC(=O)c1cccc(NC(=S)N2c3ccccc3CC2C)c1 (centres undefined)	0%	-1.6%	1	-5%
O=S(=O)(c1cccc(NC(=S)N2CCN(c3ccc(F)cc3)CC2)c1)C(F)F	8%	1.3%	4	2%
O=C(COc1ccc2ccccc2c1)Nc1ccccc1C(=O)O	3%	-1.5%	.	-38%
COc1cc(C(=O)Nc2ccc(C)cc2)c(-n2cnnn2)cc1OC	1%	-0.3%	0	0%
COc1cccc(CNC(=O)CCS(=O)(=O)c2cccs2)c1	-4%	-2.1%	4	1%
Cc1cc(C)c(S(=O)(=O)NCc2ccccn2)cc1C	5%	0.4%	.	-3%
O=C(CN1CCN(S(=O)(=O)c2ccc(Cl)cc2)CC1)Nc1ccc2c(c1)CCC2	8%	-0.8%	-13	19%
O=C(Cc1coc2ccc3ccccc3c12)NCc1ccccc1	-7%	-0.4%	0	9%
COc1ccc(CCn2c(=N)c(S(=O)(=O)c3ccccc3)cc3c(=O)n4ccccc4nc32)cc1	-18%	?	.	-4%
CC(=O)NCCc1nc2cc(NC(=O)COc3cccc(C)c3)ccc2n1C	-3%	-1.6%	.	-34%
CCOC(=O)c1ccc(NC(=O)CN2CCN(c3ccccc3)CC2)cc1	8%	0.7%	-6	-5%
COc1ccc2c(c1)c1c(n2C)[C@@H]2CC=C(CO)[C@@H](C1)N2C	-7%	-3.2%	.	.
C=CCn1c(SCC(=O)Nc2cccnc2Cl)nnc1-c1ccccc1F	-9%	1.0%	1	19%
CCOC(=O)N1CCN(CC(=O)c2ccc3c(c2)CCN3C(C)=O)CC1	-21%	-2.1%	1	-3%
CCOc1ccccc1N1CCN(c2nc3ccccc3nc2C(C#N)C(=O)OC(C)C)CC1 (centres undefined)	?	?	-4	-2%
CCOCCCNC(=O)C(Cc1ccccc1)NS(=O)(=O)c1ccc2c(c1)c(=O)n(C)c(=O)n2C (centres undefined)	0%	-0.5%	7	-3%&-7%
C[C@@H]1CC=C[C@H]2[C@H]1C(=O)N(Cc1ccccc1)[C@H]2c1ccc(/C=C/c2ccccc2)cc1F	-1%	?	1	0%
CCOC(=O)CCCC(=O)N1CCOCCOCCN(C(=O)CCCC(=O)OCC)CCOCCOCC1	7%	0.3%	4	-44%
COc1cc(C(=O)OCC(C)=O)cc(NC(=O)c2ccco2)c1OC	-1%	4.4%	-6	0%
CCCC(=O)NCCCc1nc2ccccc2n1C	7%	-4.1%	1	-5%

Given with two lines to a compound: 3 of the compounds above
Results follow in this order: Rango release inh	Rango-impB inh	GLA inh pH 4.5	miR-21 FLuc
CCOC(=O)N1CCN(CC(=O)c2ccc3c(c2)CCN3C(C)=O)CC1
→ -21%	-2.1%	1	-3%
O=S(=O)(c1cccc(NC(=S)N2CCN(c3ccc(F)cc3)CC2)c1)C(F)F
→ 8%	1.3%	4	2%
COc1cc(C(=O)OCC(C)=O)cc(NC(=O)c2ccco2)c1OC
→ -1%	4.4%	-6	0%

Next section:
SMILES	Rango release inh	Rango-impB inh	GLA inh pH 4.5	miR-21 FLuc
CC(C)(C)NC(=O)c1cccc2c1C(=O)c1ccccc1-2	3%	0.4%	2	-22%
O=[N+]([O-])c1cccc(S(=O)(=O)Nc2nc3ccccc3nc2Nc2cccc(S(=O)(=O)N3CCCCC3)c2)c1	11%	-5.0%	-17	-2%
O=S(=O)(NCc1ccccc1)c1ccc(S(=O)(=O)N2CCCC2)cc1	12%	-3.6%	-25	-2%
OC(CN1CCNCC1)Cn1c2ccccc2c2ccccc21 (centres undefined)	0%	2.1%	.	-16%
O=C(COC(=O)c1cc(F)cc(F)c1)Nc1cccnc1Cl	-6%	-0.5%	-12	-3%
NCCC1CCCC(CCN)N1 (centres undefined)	-14%	-0.3%	1	.
COc1ccc(NC(C)=O)cc1S(=O)(=O)NC(Cc1ccccc1)C(=O)O (centres undefined)	1%	0.8%	4	2%
Cc1cccc(NC(=S)NC(=O)Cc2ccccc2)c1C	11%	2.8%	.	-13%
O=C(CO/N=C/c1cccc([N+](=O)[O-])c1)Nc1ccc2ccccc2c1	-10%	1.3%	-3	-5%
CCSc1ccccc1C(=O)Nc1ccc(S(=O)(=O)NC(C)=O)cc1	35%	-2.6%	6	-2%
CCN1C[C@@H]2[C@@H]3C(=O)N(C)C(=O)[C@@H]3[C@](C)(C(=O)OC)N2C1=NC	21%	6.8%	.	.
Cn1nc(C(F)(F)F)c(C#N)c1N1CCN(c2cccc(C(F)(F)F)c2)CC1	3%	-3.5%	4	-5%
N#Cc1c(N)nc2c(c1-c1ccco1)CCCCC2	-3%	?	.	.
Cc1ccc(/C(N)=N/OC(=O)N2c3ccccc3Sc3ccccc32)cc1	-6%	-2.5%	.	.
Cc1ccc2[nH]cc(C(=O)CN3CCOCC3)c2c1	1%	-4.7%	-7	-3%
Cc1ccc(C(=O)NCCc2ccncc2)cc1	23%	-1.3%	1	-31%
CCOC(=O)c1nn(-c2ccc(Cl)cc2)c2nc(-c3ccc(C)cc3)c(C#N)c(=O)n12	0%	0.2%	4	-3%
COc1ccc(C2=CC(c3ccc(F)cc3)n3nnnc3N2)cc1 (centres undefined)	?	?	3	-14%
COc1cc(CN(CC(C)C)S(=O)(=O)c2ccccc2Br)cc(OC)c1	-11%	-1.5%	.	.
CCCCN1CNC(=S)N(Cc2ccccc2)C1	12%	-0.8%	-3	2%
O=c1[nH]c2ccc(NS(=O)(=O)c3ccc(Cl)cc3)cc2[nH]1	1%	-0.2%	1	0%
O=C1c2ccccc2C(=O)N1CC(O)COc1ccc(Br)cc1 (centres undefined)	-6%	0.7%	.	-8%
CN(Cc1ccccc1)C(=O)c1ccc(NC(=O)Cc2ccc(NC(=O)C3CCN(C(=O)C4CCCC4)CC3)cc2)cc1	2%	2.4%	.	.
Cc1cc(NC(=O)CSc2nnc(-c3ccco3)o2)no1	1%	1.4%	2	-6%
CC(C)(C)NCc1cc(Br)ccc1OCc1cccs1	-2%	-3.7%	-20	2%
COc1ccc(OC)c(S(=O)(=O)n2c([N+](=O)[O-])cnc2C)c1	10%	2.2%	.	-1%
CCc1ccc(CNC(=O)C2CCN(S(=O)(=O)N3CC(C)CC(C)C3)CC2)cc1 (centres undefined)	3%	-5.5%	.	1%
O=c1ccn([C@@H]2O[C@H](CNCC3=Cc4cc(O)ccc4OC3)[C@@H](O)[C@H]2O)c(=O)[nH]1	?	-6.9%	.	.
CC(=O)Nc1ncc(Sc2ccc([N+](=O)[O-])cc2)s1	1%	0.4%	.	.
O=C(OCc1cc(=O)n2ccsc2n1)C1(c2ccc(Cl)cc2)CC1	-10%	?	.	.
CCN1CCN(c2cc3c(cc2F)c(=O)c(C(=O)O)cn3C2CC2)CC1	-7%	0.5%	4&-3	0%
CCOc1ccc(NC(=O)Nc2ccc3c(c2)CCC3)cc1	8%	1.2%	.	-16%
O=C(NCCCCc1ccccc1)c1cccc(NC(=O)C2CC2)c1	1%	-0.5%	.	.
C=CCN(c1ccccc1)S(=O)(=O)c1cccc(C(=O)Oc2ccc3c(C)cc(=O)oc3c2)c1	-14%	-6.8%	?	-4%
COc1ccc(Cl)cc1C(=O)NCc1cnn(C)c1C	1%	-1.1%	-1	-12%
CCOc1cccnc1Sc1ccccc1	6%	-3.8%	.	.
Cc1cnccc1CN(C)Cc1cn(C)nc1-c1ccc(Oc2ccccc2)cc1	11%	-0.7%	-25	9%
CN(C)CCC(c1ccc(Br)cc1)c1ccccn1 (centres undefined)	2%&-10%&-3%	-1.3%&1.1%&-0.2%	2&-6	-7%
O=C(COC(=O)c1c2c(nc3ccccc13)/C(=C\c1cccs1)CCC2)Nc1ccccc1Cl	?	?	-4	15%
Cc1c(NS(=O)(=O)c2ccc3[nH]c(=O)[nH]c3c2)c(=O)n(-c2ccccc2)n1C	6%	1.7%	7	-4%
COC(=O)c1oc2c(c1C)C(=O)CC(C)(C)C2	2%	-0.2%	5	0%

This is a subset (hit frequency here may not be typical).
